Mtb bLac sens: beta-lactam sensitization of Mtb H37Rv | M. tuberculosis H37Rv growth with meropenem, percent inhibition; hits of this screen are not shown here | inhibition, % at 25 µM | 0.27% of 330,000 active | AID 434955;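 active = about 74% or more and at least 40 points above the plate without the antibiotic, then above 30% in a dose series; inconclusive = first-round hits that could not be retested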;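 note: growth measured after seven days incubation then overnight dye step; 0% = bacteria only wells and 100% = bacteria with antibiotic; twin plates without the antibiotic show which effects depend on it; some results filed as inactive read as strong as hits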
Arbovirus anti: blocks arbovirus infection. inhibition, % at 10 µM. arbovirus infection cell-based antiviral screen. 0.37% of 200,000 active. AID 1251;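 active = inhibition from about 30%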;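 note: bluetongue infection of BSR cells; cell survival read as ATP light after 72 h; 0% = infected wells without compound and 100% = uninfected wells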
RecA splice inh: inhibitors of M. tuberculosis RecA intein splicing. 0.75% of 290,000 active. cell-free RecA intein splicing, fluorescence. P9WHJ3. inhibition, %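 (about 9 µM by stock and volumes)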; in the data active = inhibition above about 30%; inconclusive = no clear call, values can overlap the other calls;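 note: 0% = vehicle wells and 100% = reference inhibitor control wells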
Target sequence (P9WHJ3 whole entry, looked up, canonical isoform): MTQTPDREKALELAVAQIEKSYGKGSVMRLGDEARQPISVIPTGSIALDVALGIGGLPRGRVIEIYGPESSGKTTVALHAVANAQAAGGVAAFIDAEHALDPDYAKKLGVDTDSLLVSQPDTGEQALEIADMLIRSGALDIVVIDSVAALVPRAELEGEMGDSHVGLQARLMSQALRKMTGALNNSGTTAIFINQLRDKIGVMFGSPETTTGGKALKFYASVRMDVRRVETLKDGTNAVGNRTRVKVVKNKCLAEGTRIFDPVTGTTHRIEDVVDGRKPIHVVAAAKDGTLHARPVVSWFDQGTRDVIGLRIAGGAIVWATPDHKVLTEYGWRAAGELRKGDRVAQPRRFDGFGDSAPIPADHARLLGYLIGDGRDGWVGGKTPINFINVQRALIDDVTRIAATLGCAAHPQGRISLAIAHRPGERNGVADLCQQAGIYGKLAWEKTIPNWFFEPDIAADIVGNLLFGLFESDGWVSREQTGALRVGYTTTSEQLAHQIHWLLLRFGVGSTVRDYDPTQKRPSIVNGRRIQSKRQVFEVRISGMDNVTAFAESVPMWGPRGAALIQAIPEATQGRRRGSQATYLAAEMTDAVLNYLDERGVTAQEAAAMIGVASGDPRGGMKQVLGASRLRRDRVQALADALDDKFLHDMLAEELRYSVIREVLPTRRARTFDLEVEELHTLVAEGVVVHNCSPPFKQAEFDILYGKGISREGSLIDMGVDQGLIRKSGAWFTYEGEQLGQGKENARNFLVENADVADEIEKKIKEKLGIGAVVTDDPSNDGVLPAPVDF
YopH inh: blocks Yersinia enterocolitica YopH tyrosine phosphatase. 0.16% of 140,000 active. inhibition, %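 (about 10 µM by stock and volumes)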. fluorescence Ex485/Em525;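 active = inhibition of 50% or more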;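 note: controls were vehicle for no effect and minimum signal wells for full effect; inactives centre near -20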
Mtb H37Rv: M. tuberculosis H37Rv growth inhibitors, H37Rv strain (AID 1626) | inhibition, % at 10 µM; hits with a dose series show IC50 in µM | 0.95% of 220,000 active | M. tuberculosis H37Rv growth inhibition; higher % means a stronger effect;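 active = confirmed in a dose series; inconclusive = inhibition above 80% but not taken into the dose series; inactive = below 80% or under 30% at every dose of the series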;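 note: bacteria incubated seven days before Alamar blue readout; 0% = bacteria only wells and 100% = bacteria with antibiotic wells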
Arbovirus anti repeat: second read-out of Arbovirus anti, no call of its own (marks repeat the call); inhibition, %; measured here: 10K subset replicate screen; many hits read low in the repeat;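 first of two repeat runs on a subset; 0% = infected and 100% = uninfected wells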
* = called active by the depositor; ? = inconclusive; . = not tested or not shown.

The first seven compounds (preview)
SMILES	Mtb bLac sens	Arbovirus anti	RecA splice inh	YopH inh	Mtb H37Rv	others
O=C(CC(=O)N1CCN(c2ccccn2)CC1)Nc1ccc2nc3n(c(=O)c2c1)CCCCC3	-8	-1	0.5	-33	0%	Arbovirus anti repeat=-3
COc1ccc(NC(=S)NCC(c2cccnc2)N2CCOCC2)cc1 (configuration not stated)	6	-1	-2.9	.	-5%
O=C(O)CS/C(=C\c1ccc(F)cc1)c1nc2ccccc2s1	-14	17	5.9	.	2%
OC1CCN(CC(O)C(F)(F)F)CC1 (configuration not stated)	-1	0	1.4	.	5%
COc1cc(C(=S)N2CCCC2)cc(OC)c1OS(=O)(=O)c1ccc(NC(C)=O)cc1	0	7	-1.5	-16	2%
C#CCN1C(=O)C(O)(CC(=O)/C=C/c2ccco2)c2ccccc21 (configuration not stated)	-8	-11	0.4	.	1%
O=C(c1cc([N+](=O)[O-])cc([N+](=O)[O-])c1)N1CCOCC1	3	-2	-1.7	-24	1%

The whole of this part, from the first entry:
SMILES	Mtb bLac sens	Arbovirus anti	RecA splice inh	YopH inh	Mtb H37Rv	others
O=C(CC(=O)N1CCN(c2ccccn2)CC1)Nc1ccc2nc3n(c(=O)c2c1)CCCCC3	-8	-1	0.5	-33	0%	Arbovirus anti repeat=-3
COc1ccc(NC(=S)NCC(c2cccnc2)N2CCOCC2)cc1 (configuration not stated)	6	-1	-2.9	.	-5%
O=C(O)CS/C(=C\c1ccc(F)cc1)c1nc2ccccc2s1	-14	17	5.9	.	2%
OC1CCN(CC(O)C(F)(F)F)CC1 (configuration not stated)	-1	0	1.4	.	5%
COc1cc(C(=S)N2CCCC2)cc(OC)c1OS(=O)(=O)c1ccc(NC(C)=O)cc1	0	7	-1.5	-16	2%
C#CCN1C(=O)C(O)(CC(=O)/C=C/c2ccco2)c2ccccc21 (configuration not stated)	-8	-11	0.4	.	1%
O=C(c1cc([N+](=O)[O-])cc([N+](=O)[O-])c1)N1CCOCC1	3	-2	-1.7	-24	1%
N#Cc1cc2c(cc1NC(=O)CCn1cnnn1)OCO2	2	.	-1.4	.	.
CCn1c(CC(=O)Nc2ccc(C)cc2)n[nH]c1=S	0	-4	-3.7	.	-9%
CCOC(=O)N/N=C\c1sccc1C	-6	6	-1.7	0	4%
CCOc1ccc(/C=C2\SC(=O)N(c3ccc(O)cc3)C2=O)cc1OC	2	.	-8.2	.	0%
Cc1ccc(C(=O)Nc2ccccc2C(=O)NC(Cc2c[nH]c3ccccc23)C(=O)O)cc1 (configuration not stated)	-7	11	1.9	.	2%
NC(=O)c1ccc(NC(=O)COC(=O)c2c3c(nc4ccccc24)/C(=C\c2cccs2)CCC3)cc1	100	-40	8.6	-8	0.57µM*
COC(=O)C1N[C@@H]([C@@H](NC(=O)COc2ccccc2)C(=O)Nc2ccc(OC)cc2)SC1(C)C (some centres not stated)	12	.	-0.6	.	-11%
COc1ccc(C(=O)ON=C2c3ccccc3-c3ccccc32)cc1OC	63	5	-2.3	-25	9%
COc1ccc(Cl)cc1C(=O)OCC(=O)NCCNC(=O)COC(=O)c1cc(Cl)ccc1OC	-13	.	3.1	.	.
COc1cccc(OC)c1C(=O)OCC(=O)Nc1cccnc1Cl	6	3	1.2	.	10%
COc1ccc(Oc2cn[nH]c2-c2ccc(O)cc2O)cc1	8	-5	-1.0	-41	-5%
CC(=O)c1ccc(N2CCN(C(=O)Nc3ccc(C(C)C)cc3)CC2)cc1	7	-32	3.7	.	8%
O=C(c1ccc(C#CC2(O)CCCCC2)cc1)N1CCN(Cc2ccccc2)CC1	-4	4	4.2	5	-2%
O=C(c1ccoc1)N1CCC2(CC1)Oc1ccc(F)cc1C(=O)C21CC(c2ccc(Cl)cc2)=NO1 (configuration not stated)	95	.	9.9	.	35%
COc1ccc(C2=NN(C(=O)c3ccccc3)C(c3ccccc3)C2)c(O)c1 (configuration not stated)	7	.	3.1	.	.
O=C(O)CC/C(=N/NC(=O)CNC(=O)Cc1ccc(Cl)cc1)c1ccccc1	-4	.	-2.0	.	1%
CN(CCC#N)C(=O)c1cc2c(Cl)nc3ccccc3c2s1	6	.	-2.0	.	.
O=C(CSc1nc2ccccc2s1)NCc1ccc2c(c1)OCO2	-3	-8	-2.3	-27	10%
Cc1ccsc1C=Nc1ccc(O)cc1	-5	-11	78*	-1	-7%
CC(=O)c1cc2c(cc1NC(=O)C1CCC1)OCO2	4	-3	-6.6	.	-4%
COc1cccc(Nc2ncc(C#N)c(N)n2)c1	78	.	0.6	.	22%
COc1ccc(NC(=S)NC(=O)c2ccc(Br)o2)cc1	68	1	0.2	.	?
CCC(=O)c1ccc(O)c(CC=C(C)C)c1	-10	2	1.3	-41	6%
CC(=O)Oc1ccc(/C=C(\NC(=O)c2ccco2)C(=O)NCc2ccco2)cc1	-8	.	3.9	.	.
CCOc1ccccc1C1C(C#N)=C(N)Oc2n[nH]c(CC)c21 (configuration not stated)	5	3	32*	-35	0%
Cc1ccnc(NC(=O)COc2ccccc2[N+](=O)[O-])c1	.	-1	.	.	-2%
COc1ccccc1-c1nc2ccccc2nc1-c1ccccc1OC	1	8	4.5	-5	6%
COc1cc2c(cc1OC)C(c1cccc(Br)c1)CC(=O)N2 (configuration not stated)	7	.	-0.8	.	.
CC(=O)c1ccc(N2CCN(c3ccccc3O)CC2)c([N+](=O)[O-])c1	-8	.	0.5	.	.
CCn1cc(C(C)NC(=O)Nc2ccc3c(c2)OCO3)c(C)n1 (configuration not stated)	-3	-4	.	.	7%
CN1CCN(C(=O)c2ccc3c(c2)N(Cc2ccc(Cl)cc2)C(=O)c2ccccc2S3=O)CC1 (configuration not stated)	-1	2	2.1	-26	-7%	Arbovirus anti repeat=6
CCOC(=O)C1(CCOC)CCN(Cc2nc(-c3cccs3)oc2C)CC1	-4	0	0.6	.	2%
CCOC(=O)c1cc2c(C)n(-c3ccc(C)cc3)c(C)c2ccc1=O	-7	11	2.9	-33	-3%
Cc1ccccc1-c1nc(CN2CCC(C(=O)NCCC3=CCCCC3)CC2)c(C)o1	100	-35	-0.3	-30	6%
COc1ccc(NC(=O)CN2C(=O)N(C)Cc3ccccc32)c(C)c1	0	0	-0.8	.	1%
CCCC1CCC(=C(C#N)C(N)=O)CC1 (configuration not stated)	-7	16	-12	-13	-2%
Cc1ccc(NCc2cccnc2)c(Br)c1	9	6	-0.1	-9	21%
OC(CN1CCN(c2ccccn2)CC1)Cn1c2ccccc2c2ccccc21 (configuration not stated)	91	-35	1.6	-18	35%
Cc1c2cnn(CC(=O)N3CCC4(CC3)OCCO4)c(=O)c2c(C)n1Cc1ccccc1F	-1	6	-0.8	-61	0%
Cc1oc2c(c(C)cc3oc(=O)c(CC(=O)N[C@@H](C)C(=O)O)c(C)c32)c1C	0	.	2.4	.	.
O=C(Cn1c(CO)nc2ccccc21)NCCc1ccc(F)cc1	4	-1	-1.1	.	-7%
CCCNc1nc2ccccc2n2c(C)nnc12	-4	.	-0.9	.	.
C=CCNC(=O)c1sc(-c2ccccc2)nc1C	-1	-2	-0.9	.	-4%

(further entries)
SMILES	Mtb bLac sens	Arbovirus anti	RecA splice inh	YopH inh	Mtb H37Rv	others
O=c1c2ccccc2cnn1-c1nc2ccccc2[nH]1	.	-20	-0.5	.	-5%
Cc1cc(NC(=O)C2CCCN2C(=O)Nc2c(C)cccc2C)ccc1-n1cnnn1 (configuration not stated)	-7	0	-1.1	-26	5%
Cc1cc(NC(=O)CSCc2ccccc2C)no1	-1	5	-0.2	.	3%
Cc1c(NC(=O)c2ccccc2NS(=O)(=O)c2ccc(Br)cc2)c(=O)n(-c2ccccc2)n1C	2	12	3.0	-41	0%
O=C(O)/C=C\C(=O)Nc1ccc(OC(F)F)cc1	0	0	-0.5	.	-13%
O=S(=O)(Cc1ccccc1)NCC1CCCN(Cc2cccc3nonc23)C1 (configuration not stated)	-4	-1	1.0	.	2%
CC1CCCCN1CCNC(=O)CN1C(=O)CSc2ccc(S(=O)(=O)N3CCCCC3)cc21 (configuration not stated)	1	.	-0.1	.	.
CCn1cc(C(=O)Nc2cccc(NC(C)=O)c2)c2cc(OC)c(OC)cc2c1=O	-8	5	2.3	11	.
CC(=O)C1=C(O)C(=O)N(CCC(=O)O)C1c1ccc(Cl)cc1Cl (configuration not stated)	2	8	-0.8	-30	-5%
OCCC1CN(Cc2cccc(O)c2)CCN1CCc1ccccc1 (configuration not stated)	9	1	0.0	.	5%
C/C=C/c1ccc(Oc2nnnn2-c2ccc(C(N)=O)cc2)c(OC)c1	5	0	-3.8	-20	11%
O=C(CSc1nc(-c2ccccc2)cs1)NC(=O)NCc1ccco1	9	1	4.5	-14	1%
Cc1nc2sc(C(c3cccs3)N3CC(C)CC(C)C3)c(O)n2n1 (configuration not stated)	-3	19	-1.5	-15	7%	Arbovirus anti repeat=4
CCCS(=O)(=O)N1CCN(C(=O)c2ccco2)CC1	-2	3	.	-20	-13%
CC(=O)NS(=O)(=O)c1ccc(NC(=S)NC(=O)C(C)(C)C)cc1	-7	4	-0.9	-45	-2%
O=C(CCN1C(=O)c2ccncc2C1=O)NCc1ccc(Cl)cc1	0	14	1.1	-1	1%
CC1CCC(NC(=O)c2ccc(CS(=O)(=O)Cc3ccccc3F)o2)CC1 (configuration not stated)	2	7	1.5	8	-7%
CC(Sc1nnc2ccccn12)C(=O)NCc1ccc2c(c1)OCO2 (configuration not stated)	-1	-10	.	.	-5%
COc1ccc(S(=O)(=O)N/N=C\c2ccc([N+](=O)[O-])o2)c(OC)c1	100	.	-9.8	.	.
Cc1ccc(C(=O)NC(=S)Nc2ccc(N3CCOCC3)cc2)c(C)c1	1	-1	-6.3	.	2%
CC(CN(C)C)CN1c2ccccc2CCc2ccccc21 (configuration not stated)	-2	.	-1.1	.	-4%
Cc1cccc(Oc2cc(NC(=O)Cn3cnc([N+](=O)[O-])n3)cc([N+](=O)[O-])c2)c1	99	-35	.	-27	74%
CCOc1ccc(N(CC(=O)Nc2ccccc2OC)S(=O)(=O)c2ccccc2)cc1	-5	.	7.0	.	.
COc1ccc(CC(=O)N2CCN(c3cccc(C)c3C)CC2)cc1	-6	.	5.9	.	.
COc1ccccc1CNC(=O)COC(=O)C1CCN(S(=O)(=O)c2ccccc2)CC1	-2	.	0.4	.	.
COc1cc(C(=O)NNC(=O)c2cc(=O)[nH]c3ccccc23)cc(OC)c1OC	8	.	-0.4	.	.
COc1ccccc1N1CCN(C2CCCN(C(=O)c3ccoc3)C2)CC1 (configuration not stated)	-6	.	-8.9	.	.
CCc1ccc(-n2nnnc2SCC(=O)Nc2ccc(NC(C)=O)cc2)cc1	7	.	0.2	.	.
CCN(CC)CCNC(=O)c1ccc(NC(=O)Cc2cccc3ccccc23)cc1	-2	.	1.0	.	.
C#CCOC(=O)Nc1cnccc1C(F)(F)F	-9	.	-4.0	.	-11%
C(=N\c1nc2ccccc2[nH]1)/c1cccs1	-11	4	2.9	-26	12%
CC(=O)Nc1ccc2c(c1)N(S(=O)(=O)c1cccs1)CCC2	4	.	-1.1	.	.
O=C1CCCN1CCCNC(=S)Nc1ccc(F)cc1	0	-3	-1.4	.	-1%
Cc1ccc(Oc2coc3cc(O)ccc3c2=O)cc1	-3	.	0.4	.	.
Cc1c(NS(=O)(=O)c2ccc3c(c2)NC(=O)CC(=O)N3)cccc1[N+](=O)[O-]	1	.	3.0	.	.
CCCn1cnc2sc(CC)cc2c1=O	6	0	1.8	-33	6%
O=C1NCCN/C1=C\C(=O)c1ccc(Cl)cc1	-1	.	4.2	.	-1%
CCOC(=O)C1C(=O)CC(C)(O)C(C(=O)OCC)C1c1ccco1 (configuration not stated)	-3	6	-0.8	-33	5%	Arbovirus anti repeat=1
Cc1cc(C)cc(NC(=S)NCCN(C2CCCCC2)C2CCCC2)c1	-4	-4	5.8	.	9%
CSc1nc(-c2ccc(Cl)cc2)nc(N)c1C#N	-6	.	0.8	.	1%
CCOc1ccc(C2C(C(=O)c3ccco3)=C(O)C(=O)N2CCN(C)C)cc1 (configuration not stated)	.	1	-2.0	-10	.
COC(=O)c1[nH]c(C)c(/C(O)=C2\C(=O)C(=O)N(CCN(C)C)C2c2cccc(OC)c2OC)c1C (configuration not stated)	-6	2	-7.1	-15	.
Cc1cccc(C)c1N1C(=O)CN(Cc2ccccc2)C1=S	-1	.	1.8	.	.
Cc1c(N=C/C=C/c2ccccc2)c(=O)n(-c2ccccc2)n1C	5	-8	-3.5	-41	-3%
CC1CC(CC(=O)NC(=S)Nc2ccccc2Cl)C(=O)O1 (configuration not stated)	-10	0	-0.4	.	-8%
CCc1ccccc1N1C[C@@]23C=C[C@@H](O2)C(C(=O)OCC(C)C)[C@H]3C1=O (some centres not stated)	-4	9	-0.5	-77	0%

This is a subset; rates above refer to the full screens.
